Source: PubChem (several laboratories)
UUG fidelity: modulators of yeast start codon fidelity, primary screen, whole organism, S. cerevisiae, single point, plate reader | S. cerevisiae UUG-firefly luciferase reporter, luminescence/redox ratio | activity score, % at 18.7 µM | 350,000 compounds, 0.13% hits | AID 602363, 2012;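 active = replicate mean at a twofold rise or more, about +100% in these data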;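 note: firefly luciferase made from a UUG start codon reports start codon fidelity; reporter light over untreated wells divided by growth signal over untreated wells; some hits fall short of that in this replicate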
Rce1 inhib: yeast Rce1p protease inhibitors, primary screen, biochemical, fluorescence, cell-free homogeneous; CAAX prenyl protease 2 (Saccharomyces cerevisiae (strain ATCC 204508 / S288c)), Q03530; yeast membranes, quenched prenylated peptide cleavage fluorescence; calls only; 290,000 compounds, 0.27% hits; AID 2563, 2010;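 active = fall in fluorescence gain of 50% or more versus controls, with final raw signal at or below 3038400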;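 note: plate controls were neutral control wells for no effect and wells lacking membranes for full effect; tested at 10 µM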
Target sequence (Q03530 whole entry, looked up): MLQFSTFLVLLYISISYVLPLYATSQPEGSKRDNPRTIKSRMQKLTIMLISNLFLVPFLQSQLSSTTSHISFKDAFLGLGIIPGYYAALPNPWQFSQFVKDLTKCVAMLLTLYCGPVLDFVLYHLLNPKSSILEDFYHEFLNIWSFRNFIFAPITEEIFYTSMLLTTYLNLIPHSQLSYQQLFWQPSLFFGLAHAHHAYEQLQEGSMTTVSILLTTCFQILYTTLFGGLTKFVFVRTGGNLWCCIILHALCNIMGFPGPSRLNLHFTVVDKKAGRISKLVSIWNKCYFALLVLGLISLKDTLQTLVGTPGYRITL
Env fusion inh: inhibitors of HIV-1 Env-driven cell-cell fusion, primary screen, HeLa-JRFL effector, CEM21 target cells, luciferase. inhibition, % at 12.3 µM. 360,000 compounds, 1.1% hits;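 active = mean replicate inhibition score of at least 50 and every replicate individually at or above 50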;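 note: 0% = plate neutral controls and 100% = maraviroc near 300 nM; one replicate is shown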
CSC inhib: cancer stem cell viability inhibitors, primary screen, luminescence | cancer stem cell-like cells viability | inhibition, % at 7.5 µM | 300,000 compounds, 1.1% hits | AID 2717, 2010;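 active = mean at 75% or more and at least half the replicates too; tested in HMLE shEcad cells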;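 note: 0% = median of negative and 100% = median of positive control wells; the first replicate is given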
eIF4H inh: human eIF4H binding inhibitors, primary screen, translation initiation inhibitor project, biochemical, uHTS, fluorescence polarization; inhibition, % at 35 µM; 290,000 compounds, 0.94% hits; AID 2012, 2009; eIF4H fluorescence polarization binding assay; Eukaryotic translation initiation factor 4H (Homo sapiens), Q15056;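 active = 50% or more with normal probe brightness, or confirmed in later tests; about a fifth of its hits are not listed in these tables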;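 note: calls also rest on retests at 20 µM and on dose response follow-up; 0% = protein and probe with vehicle and 100% = probe without protein; strong numbers were not always called active; many hits fall short of the cut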
MT1-MMP act inh: blockers of MT1-MMP proenzyme processing, primary screen, HT1080 RFP-PRO-GFP cells, GFP/RFP fluorescence; 360,000 compounds, 0.061% hits; AID 651647, 2012; Matrix metalloproteinase-14 (Homo sapiens), P50281; GFP/RFP ratio change, % at 20 µM; GFP/RFP ratio fluorescence, overnight; percent of plate control window, DMSO zero;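 active = GFP/RFP ratio change of at least 30% with cell ATP level not reduced by more than half and red fluorescence within 50% of control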; note: strong numbers were not always called active
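Material: RFP-PRO-GFP reporter HT1080 cells. Dosing: single-point 20 µM compound, 1% DMSO. Controls: DMSO and RFP-L50D-GFP cell wells. Timing: cells overnight before dosing, compound overnight, 37 °C, 5% CO2. Measure: GFP/RFP fluorescence ratio.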
PABP polyA inh: PABP poly(A) RNA binding inhibitors, primary screen, biochemical, fluorescence polarization, uHTS | inhibition, % at 35 µM | 290,000 compounds, 1% hits;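 active = 50% or more with normal probe brightness, or confirmed in later tests; about a fifth of its hits are not listed in these tables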;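 note: calls also rest on retests at 20 µM and on dose response follow-up; controls were probe without protein and protein plus probe with vehicle; some compounds called inactive have numbers as strong as hits; many hits fall short of the cut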
Target sequence (P11940 whole entry, looked up): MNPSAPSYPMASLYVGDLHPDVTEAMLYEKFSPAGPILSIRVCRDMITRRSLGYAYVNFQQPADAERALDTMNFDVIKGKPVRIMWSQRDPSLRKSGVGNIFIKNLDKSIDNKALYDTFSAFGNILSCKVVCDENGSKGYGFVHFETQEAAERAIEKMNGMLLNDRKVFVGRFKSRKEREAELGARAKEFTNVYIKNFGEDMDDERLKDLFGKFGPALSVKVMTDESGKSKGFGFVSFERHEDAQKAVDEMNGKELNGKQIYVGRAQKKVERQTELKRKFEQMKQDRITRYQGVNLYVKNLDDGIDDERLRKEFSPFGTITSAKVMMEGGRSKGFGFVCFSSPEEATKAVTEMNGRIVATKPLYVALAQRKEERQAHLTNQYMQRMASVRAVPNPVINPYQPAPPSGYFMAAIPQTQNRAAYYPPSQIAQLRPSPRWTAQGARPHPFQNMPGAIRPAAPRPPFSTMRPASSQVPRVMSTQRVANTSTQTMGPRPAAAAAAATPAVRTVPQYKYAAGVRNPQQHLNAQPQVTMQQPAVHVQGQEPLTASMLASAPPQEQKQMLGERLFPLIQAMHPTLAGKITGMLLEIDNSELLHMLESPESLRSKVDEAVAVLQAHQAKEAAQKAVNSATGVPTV
MT1-MMP act inh RFP: recorded beside MT1-MMP act inh, whose call it bears; RFP signal change, %; measured here: RFP expression control read;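 0 = vehicle wells; hits needed this value within 50% of zero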
Starred values were filed as active, the others as inactive; i = inactive; / = not tested or not shown; & = joins results of further samples; [ ] = another dose, or the depositor's remark.

SMILES | UUG fidelity | Rce1 inhib | Env fusion inh | CSC inhib | eIF4H inh | MT1-MMP act inh | MT1-MMP act inh RFP | PABP polyA inh
Cc1ccc(NS(=O)(=O)c2c(C)[nH]c(=O)[nH]c2=O)c(Br)c1 | -16.8 | i | -1.1 | 3.2 | -8.3 | -3.3 | 1.4 | 6.8
CCC/C(=N\NC(=O)CCC(=O)NCc1ccccc1)c1ccccc1 | / | i | 0.0 | 5.9 | -0.7 | -2.6 | -0.6 | 2.9
COc1nc2c(s1)C(=O)NCCC2 | -8.4 | i | / | -1.1 | 2.1 | -1.3 | 2.5 | -0.9
O=C(COc1ccccc1)NC1CCCCC1 | -12.0 | i | 15.0 | -5.6 | 5.5 | -1.1 | -1.9 | 4.8
Cn1c(=O)c2c(nc(CN3CCOCC3)n2CC(=O)c2ccccc2)n(C)c1=O | -13.9 | i | / | 11.3 | / | 3.5 | 9.7 | /
COc1cccc(/C=C/C(=O)NCc2ccc3c(c2)OCO3)c1 | -12.9 | i | -3.5 | 16.7 | 12.0 | 2.1 | 1.9 | 9.2
COc1ccc(C2NN=C(c3ccc(C)cc3)S2)cc1 (stereo not given) | -20.8 | i | -140.4 | -7.7 | -13.9 | 4.2 | -5.6 | 7.6
Cc1c(NC(=O)COc2ncnc3ccccc23)c(=O)n(-c2ccccc2)n1C | -20.8 | i | / | 14.1 | 5.7 | -2.5 | 1.5 | -0.6
Cc1ccc2nc3c(cc(C(=O)NC4CCCC4)c(=N)n3C3CCCCC3)c(=O)n2c1 | -11.6 | i | -6.5 | / | -0.8 | 3.2 | 0.2 | -4.7
Nc1ccc(N2CCOCC2)c(S(=O)(=O)Nc2cc(Cl)ccc2Cl)c1 | -1.0 | i | 9.9 | 2.8 | 4.5 | -1.7 | 0.9 | 27.8
O=C(N/N=C/c1ccccc1)C(O)c1ccccc1 (stereo not given) | -16.0 | i | -3.1 | 1.0 | 2.6 | -3.5 | -0.2 | 2.1
O=[N+]([O-])c1ccc2nc(-c3ccccc3)cc(-c3ccccc3)c2c1 | -7.7 | i | 1.5 | -21.2 | 3.8 | 0.3 | -0.6 | -5.4

One compound at a time, from the list above.
COc1ccc(C2NN=C(c3ccc(C)cc3)S2)cc1 (stereo not given) is listed with UUG fidelity = -20.8; Rce1 inhib = i; Env fusion inh = -140.4; CSC inhib = -7.7; eIF4H inh = -13.9; MT1-MMP act inh = 4.2; MT1-MMP act inh RFP = -5.6; PABP polyA inh = 7.6
O=C(COc1ccccc1)NC1CCCCC1 is listed with UUG fidelity = -12.0; Rce1 inhib = i; Env fusion inh = 15.0; CSC inhib = -5.6; eIF4H inh = 5.5; MT1-MMP act inh = -1.1; MT1-MMP act inh RFP = -1.9; PABP polyA inh = 4.8

Continued.
SMILES | UUG fidelity | Rce1 inhib | Env fusion inh | CSC inhib | eIF4H inh | MT1-MMP act inh | MT1-MMP act inh RFP | PABP polyA inh
CCOc1ccc(C(=O)Nc2ccc(C(=O)N3CCOCC3)cc2)c(OCC)c1 | 15.6 | i | 7.9 | -18.2 | 6.7 | 0.2 | 1.7 | -0.1
NS(=O)(=O)c1ccc(NC(=O)COC(=O)C2CC(=O)N(Cc3ccccc3)C2)cc1 (stereo not given) | 0.9 | i | 3.3 | -6.7 | 0.2 | 0.1 | 1.4 | 10.9
COc1ccc(OC)c(NC(=O)Cc2csc(NC(=O)Nc3ccccc3OC)n2)c1 | 4.6 | i | 0.8 | 1.7 | / | 4.5 | -2.6 | /
Cc1ccc(C(=O)Nc2cccc(C(=O)N3CCN(C)CC3)c2)cc1 | -20.4 | i | -137.3 | -9.7 | -3.7 | 3.2 | -0.7 | -5.8
COc1cc2c(=O)n(CC3CCCO3)c(=O)n(CC(=O)Nc3ccccc3)c2cc1OC (stereo not given) | 4.0 | i | -9.5 | -16.2 | 0.4 | -2.9 | 2.3 | -1.1
Cc1cc(C(=O)N[C@@H](c2ccccc2)[C@]2(C)C[C@H]2[C@@H](C)C(=O)Nc2ccc3ccccc3c2)no1 | -4.9 | i | -6.2 | 30.5 | 3.2 | -4.7 | 0.4 | 5.5
O=C(CNC(=O)c1ccc(S(=O)(=O)N2CCCC2)cc1)N/N=C/c1c(Cl)cccc1Cl | / | i | 7.7 | -4.4 | 4.3 | -8.3 | -6.1 | -7.7
C/C(=N\NC(=O)c1ccncc1)c1cccs1 | / | i | -0.5 | -2.3 | -2.3 | 2.1 | 5.6 | -2.6
CCOc1ccc(-c2nc(CN3CCCCC3CCn3cccn3)c(C)o2)cc1 (stereo not given) | / | i | 6.6 | -11.4 | -2.8 | 3.1 | -3.1 | 2.5
Cc1ccc(N2C(=O)N(CC(=O)c3cc(C)ccc3C)C(=O)C2C)cc1 (stereo not given) | 0.3 | i | 18.1 | 1.6 | 8.0 | -0.1 | -2.2 | 2.7
COc1ccc(CCC(=O)Nc2ccc(Cn3ccnc3)cc2)cc1 | -11.4 | i | 2.2 | 6.1 | -1.0 | 4.1 | 4.6 | 0.0
O=C(CNC(=O)c1ccccc1)OCC(=O)c1c[nH]c2ccccc12 | -3.8 | / | -1.2 | -14.6 | / | -2.6 | 3.7 | /

Look-ups from the list:
O=C(CNC(=O)c1ccccc1)OCC(=O)c1c[nH]c2ccccc12 in UUG fidelity is listed with -3.8
COc1ccc(CCC(=O)Nc2ccc(Cn3ccnc3)cc2)cc1 in CSC inhib is listed with 6.1

Further results follow:
SMILES | UUG fidelity | Rce1 inhib | Env fusion inh | CSC inhib | eIF4H inh | MT1-MMP act inh | MT1-MMP act inh RFP | PABP polyA inh
C=CCNC(=O)c1c2c(nc3ccccc13)-c1ccccc1CC2 | -8.6 | i | -3.4 | -2.5 | -8.9 | 1.1 | -4.1 | -7.9
O=C(O)CCc1ccc(-c2ccc(Cl)cc2)n1Cc1ccco1 | -0.7 | i | -2.5 | -6.8 | 20.9 | -3.9 | -1.1 | 6.0
COc1ccc(OC)c(NC(=O)Cn2cc(C(=O)c3ccco3)c3ccccc32)c1 | 134.4* | i | 6.7 | -12.0 | 0.2 | 4.8 | -8.9 | -4.7
Cc1ccccc1N=C/C=C1\N(C)c2ccccc2C1(C)C | -17.3 | i | 20.6 | -3.8 | -8.5 | 55.8* | 35.8* | 27.6
Cn1c(=O)c2sccc2n(CC(=O)NCCC2=CCCCC2)c1=O | -17.0 | / | 15.4 | -3.1 | -12.5 | 5.6 | -2.9 | 3.0
O=C(COc1ccc(S(=O)(=O)Nc2cccc(C(F)(F)F)c2)cc1)N1CCOCC1 | 5.3 | i | 2.7 | 4.1 | -7.2 | 2.9 | -7.9 | -7.9
Cn1c(C(=O)N2CCC(C(N)=O)CC2)cc2cc(Cl)ccc21 | 8.7 | i | -3.4 | -15.0 | -8.6 | -3.7 | -6.1 | -2.3
CS(=O)c1ccc(-n2c(=O)n(Cc3ccccc3)c(=O)c3[nH]cnc32)cc1 (stereo not given) | / | i | 13.7 | 1.9 | 0.0 | -1.4 | 4.2 | 0.8
CN(Cc1ccccc1)C(=O)c1oc(=O)c2ccccc2c1-c1ccccc1 | 5.8 | i | 0.0 | 27.0 | -0.6 | 0.8 | -6.1 | -5.0
CN1C(=O)N(C)C2(c3ccccc3)N(C(C)(C)C)C(=O)NC12c1ccccc1 (stereo not given) | / | i | -3.8 | -9.4 | -8.5 | -1.2 | 0.8 | -6.4
CC1CCCC(NC(=O)CN2C(=O)COc3ccccc32)C1C (stereo not given) | 0.3 | i | 10.3 | 14.6 | -2.5 | -0.8 | 0.8 | 5.4
O=C1CSC(c2ccccn2)N1c1ccc(F)cc1F (stereo not given) | / | i | 10.5 | 0.6 | -4.2 | 1.5 | 1.2 | -10.8
Cc1ccc(NC2=CC(=O)C(=O)c3ccccc32)c(C)c1 | -12.8 | / | 57.6* | / | / | 9.5 | -14.8 | /
CCOC(=O)CNC(=O)c1sc(NC(=O)c2ccccc2F)nc1C | -31.5 | i | / | 36.8 | 6.1 | -0.3 | -0.7 | 6.6
c1ccc(CSc2nnc(SCc3ccccn3)s2)nc1 | -4.4 | i | -90.7 | / | -4.8 | 4.7 | 4.4 | 9.3
CCCNC(=O)c1cc(OC)c(OC)cc1[N+](=O)[O-] | -5.8 | i | / | / | -4.3 | 2.2 | 0.4 | 10.4
COc1ccc(C2(C)NC(=O)N(CC(=O)NC3CCCC3)C2=O)cc1OC (stereo not given) | -26.9 | / | / | -2.6 | / | -5.5 | -2.9 | /
O=S(=O)(NNc1ccc(F)cc1F)c1cccc(Cl)c1 | / | i | -7.2 | 55.2 | -1.5 | -4.4 | 1.9 | 0.9
CC1C(=O)C(C)C(c2cccs2)NC1c1cccs1 (stereo not given) | -17.6 | i | -91.7 | -5.5 | -1.7 | 4.8 | 1.3 | 7.9
O=C(N1CCN(c2ccc(F)cc2)CC1)C1(c2cccs2)CCOCC1 | / | i | -21.3 | 1.6 | -4.9 | 2.8 | 0.0 | 13.0
NC(=O)C1CCCN(C(=S)NCc2ccc3c(c2)OCO3)C1 (stereo not given) | / | i | -4.3 | -1.1 | 0.6 | -0.3 | 1.2 | 0.1
Cc1ccc2c(c1)C1NC(=S)NC(C)(O2)C1C(=O)Nc1ccc(Cl)cc1 (stereo not given) | -16.6 | i | -90.0 | -3.5 | -6.8 | 1.3 | -2.7 | -1.8
CCOC(=O)CNC(=O)c1ccccc1Br | 3.9 | i | / | -7.9 | 2.3 | 4.3 | 4.2 | 3.7
CCCCCCn1c(N2CCC(C(N)=O)CC2)nc2c1c(=O)[nH]c(=O)n2C | -10.7 | i | 0.4 | -4.2 | 1.6 | -2.4 | 3.5 | 5.1
C=CCNC(=O)C1CC2c3ccccc3C1c1ccccc12 (stereo not given) | / | i | -22.1 | -8.5 | / | 2.9 | 4.9 | /
COc1cc(/C=N/NC(=O)[C@H](Cc2c[nH]c3ccccc23)NC(=O)OCC(C)C)cc([N+](=O)[O-])c1O | / | i | / | 8.8 | -8.2 | 10.9 | 1.8 | 21.2
COc1ccc(CN(C)C[C@H]2OCCCC[C@@H](C)Oc3ccc(NS(C)(=O)=O)cc3C(=O)N([C@H](C)CO)C[C@@H]2C)cc1 | -14.6&-9.9 | / | -3.3[16.7 µM] | / | / | 5.5 | 3.9 | /
O=C(COC(=O)CCc1ccc(S(=O)(=O)N2CCCCC2)cc1)Nc1ccc2c(c1)OCO2 | 6.7 | i | / | -7.7 | 6.6 | -1.5 | -3.2 | -2.7
CCOC(=O)c1ccc(-n2c(C)nc3c(cnn3-c3ccc(Cl)cc3)c2=O)cc1 | -10.8 | i | 49.1 | 9.3 | 0.6 | 6.9 | -11.8 | -5.5
CCC1(C)Cc2ccccc2-c2nc[nH]c(=O)c21 (stereo not given) | -0.4 | i | -0.3 | / | -3.6 | -0.7 | -0.2 | -1.1
O=CN1CCN(C(=O)CN2C(=O)c3ccccc3C2=O)CC1 | -11.6 | i | / | -10.4 | 4.8 | 8.6 | 1.1 | 7.6
COc1ccc(C)cc1NC(=O)CC1COc2ccccc2O1 (stereo not given) | 4.7 | i | 15.4 | -12.0 | -3.0 | -3.2 | -2.5 | -3.5
O=C(COc1ccc(-c2ccccc2)cc1)N1CCN(C(=O)c2cccnc2)CC1 | 0.1 | i | / | -3.3 | 1.2 | 1.6 | -2.4 | -0.1
Cc1cccc(N(CC(=O)NC2CC2)S(=O)(=O)c2ccc(Cl)cc2)c1 | -14.6 | i | -15.1 | -8.0 | -5.9 | 3.8 | 2.4 | -2.2
